# Bst PK mod – Pyruvate Kinase; partly purified Bacillus stearothermophilus pyruvate kinase, luminescence ATP production; ribose 5-phosphate activator present at AC10; Potency, µM; 51,000 tested, 1.2% active; in the data active means potency below about 11 µM; inconclusive means mostly about 12 µM to 25 µM; inactive means weaker than that;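 the screen sought inhibitors and activators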;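 note: potency is the fitted concentration of half-maximal effect; scaled between full activation by ribose 5 phosphate and full inhibition by luteolin; about four in five hits inhibit and the cells do not say which; series up to 57 µM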
# TsaE inh – qHTS Assay for Inhibitors of YjeE; tRNA threonylcarbamoyladenosine biosynthesis protein TsaE (Escherichia coli (strain …; purified YjeE, fluorescence polarisation of a bound ADP probe; Potency, µM; 71,000 tested, 0.05% active; AID 605, 2007; active = well fitted falling curve; inconclusive = weaker or top-dose-only fall, or a rising curve; inactive = flat or poorly fitted curve;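 note: top concentration of the series not given in the record; excess ADP was the control for the full effect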
#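 Purified YjeE (10 uM) with BODIPY Texas Red-labeled ADP probe (2 uM); compounds pin-transferred, 15 min at room temperature. Binding inhibition read as decreased fluorescence polarization; ADP titration as control.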
# The depositor's hits bear a star; i = inactive; ? = inconclusive; . = no result given. Only part of the results is shown; the hit share may differ from the screen's.
Bst PK mod	TsaE inh	canonical_smiles
>57	i	CCOCCc1c(O)nc(SCC(=O)NCc2ccco2)[nH]c1=O
>57	i	CC(C)C(=O)Nc1ccc(NC(=O)c2cccc(F)c2)cn1
.	i	CCOC(=O)N1CCC(N2C(=O)c3ccccc3C2=O)CC1
>57	i	Cc1cccc(C)c1NC(=O)CSc1nnc(Cn2nnc(-c3ccccc3)n2)n1-c1ccccc1
>57	i	Cn1c(Cc2ccccc2)nnc1SCC(=O)Nc1ccc2c(c1)OCCO2
>11	.	O=C(c1cncc(Br)c1)N1CCCc2ccccc21
.	i	COc1ccccc1N1CCN(C(=O)Cc2cccs2)CC1
>57	i	CCN(CC)S(=O)(=O)c1ccc(NC(=O)c2cccc3c2C(=O)N(CCOC)C3)cc1
.	i	Cn1cc(-c2nc3cncnc3n(Cc3ccc(F)cc3)c2=O)c2ccccc21
>57	i	COc1ccc(-n2c(C)cc(C(=O)Cn3nnc4ccccc4c3=O)c2C)cc1
.	i	O=C(Nc1ccc(Nc2ccccc2)cc1)C1CC1
>57	i	CN1CCCC(OC(=O)COc2ccccc2)C1 (configuration not stated)
>57	i	COC(=O)C1C(=O)C2=C(CC1C)NC(=O)CC2c1ccc(O)c(OC)c1 (configuration not stated)
.	i	Cn1c(=O)n(CCCOc2ccc(Br)cc2)c2ccccc21
>57	i	CCOC(=O)CSc1cc(C)nc(NC(C)=O)n1
.	i	CCCC(=O)Nc1c(C)nn(C(=O)CCC)c1C
>57	i	CCCCN(CC)S(=O)(=O)c1ccc(C(=O)Nc2nnc(CSC)o2)cc1
.	i	COCCNc1nc(C)nc2c1nc(-c1ccccc1)n2C1CCN(Cc2ccccc2)C1 (configuration not stated)
.	i	c1ccc2c(c1)Oc1ccccc1S2
>57	i	CCn1ncc(Cl)c1C(=O)NC(C)c1ccccc1 (configuration not stated)
>57	i	O=C1C2C3C=CC(C3)C2C(=O)N1c1n[nH]c(CCc2ccccc2)n1 (configuration not stated)
.	i	CCOC(=O)CSc1ccc2nnc(-c3cccs3)n2n1
>57	i	O=C(NCc1ccccc1)NC(=O)c1ccccc1
>57	i	Nc1ccccc1OCCOCCOCCOc1ccccc1N
9.2*	i	O=C(OCc1c(Cl)cccc1Cl)c1cccnc1
>57	i	O=C(CN1CCN(Cc2ccccc2)CC1)c1ccc(Br)cc1
>57	i	CCOC(=O)N1CCC(n2c(=S)[nH]c3cc(OC)c(OC)cc3c2=O)CC1
>26	.	COc1ccc(CNC(=O)[C@H](C)NC(=O)C2CCN(S(=O)(=O)c3ccc(C)cc3)CC2)cc1
>57	i	O=C(Cc1cccs1)Nc1cccnc1
>26	.	COc1cccc(C2/C(=C(/O)c3cnn(-c4ccccc4)c3C)C(=O)C(=O)N2CCN(C)C)c1 (configuration not stated)
>57	i	CN(C1CCCCC1)S(=O)(=O)Cc1ccccc1
>57	i	O=C(N1CCN(c2ccccc2)CC1)C12CC3CC(CC(C3)C1)C2
>57	i	O=C(CSc1nnnn1-c1ccc2c(c1)OCCO2)N1CCc2ccccc21
>57	i	CC(C)NS(=O)(=O)c1ccc(CCC(=O)N2CCOCC2)cc1
>57	i	Cc1ccc(Cl)cc1N1CCN(S(=O)(=O)c2ccc3c(c2)OCCO3)CC1
.	i	CN(C)Cc1ccccc1-c1ccc2ncnc(NCc3ccccc3)c2c1
>57	i	CCN1CCN(c2nc3c(c(=O)n(C)c(=O)n3C)n2CCSc2ncccn2)CC1
>57	i	O=c1[nH]c2cc3c(cc2cc1CN(CCCO)Cc1nnnn1Cc1ccc(F)cc1)OCO3
>57	i	COC(=O)c1ccc(CSc2nnnn2-c2ccccc2)o1
>57	i	Cc1ccccc1C(=O)Nc1cccc(-c2nnc(SCC(=O)O)n2C)c1
.	i	CCCCNc1nc(C)nc2c1nc(-c1ccccc1)n2CCN(C)C
>57	i	Cc1c(C(=O)N2CCN(S(C)(=O)=O)CC2)oc2ccccc12
.	i	CCOC(=O)c1cnn(CC2CCCCC2)c1N
>57	i	O=S(=O)(Nc1ccc2c(c1)CCC2)c1cccs1
>57	i	O=C(NC1CCCCC1)N1CCCC(c2nc(-c3ccc(S(=O)(=O)N4CCCC4)cc3)no2)C1 (configuration not stated)
>57	i	Nn1c(SCC(=O)Nc2ccc3c(c2)OCO3)nnc1-c1ccncc1
>57	i	CCCCn1c(SCC(=O)c2ccc3c(c2)OCCO3)nnc1-c1ccco1
.	i	Cc1ccc(S(=O)(=O)CNC(=O)c2ccccc2)cc1
>57	i	CC(C)OCCCn1c(=S)[nH]c2cc3c(cc2c1=O)OCO3
.	i	COc1ccc(NC(=O)N(CCCN2CCOCC2)Cc2cccnc2)c(OC)c1
>57	i	COc1ccc(/C(O)=C2/C(=O)C(=O)N(CCCN(C)C)C2c2cccnc2)cc1 (configuration not stated)
.	i	COc1ccc(-c2noc(N3CCC(C(=O)N4CCN(c5ccccn5)CC4)CC3)n2)cc1
>11	i	CCOC(=O)Nc1cccc2ccccc12
.	i	CCCc1nc(SCC(=O)N2CCN(c3ccccc3)CC2)c2c(=O)n(C)c(=O)n(C)c2n1
?	i	Cc1ccc2c(c1)C(N1CCCC1=O)CC(c1ccco1)N2 (configuration not stated)
>57	i	O=C(Nc1ccccc1C(=O)N1CCOCC1)c1noc2c1CCCC2

# Next section:
Bst PK mod	TsaE inh	canonical_smiles
>57	i	CCCCOCC1CN(c2ccccc2)C(=O)CS1 (configuration not stated)
?	i	CCOc1ccccc1N1CCN(S(=O)(=O)c2ccc(Cl)s2)CC1
.	i	COc1ccc(NC(=O)C2CC(=O)N(C(C)C)C2)cc1 (configuration not stated)
.	i	N#CCCn1c(=O)c(-c2ccc(Cl)cc2)nc2cnc(N3CCOCC3)nc21
.	i	CC(=O)Oc1ccc(N2C(=O)C3C(C2=O)C2(C)C=CC3(C)O2)cc1 (configuration not stated)
>57	i	O=C(CSc1nnc(-c2ccc(Br)cc2)o1)N1CCN(C(=O)c2ccco2)CC1
.	?	Cc1cc(N2CCN(C(c3ccccc3)c3ccc(Cl)cc3)CC2)n2ncnc2n1 (configuration not stated)
>57	i	CCCCN(C)CCNC(=O)c1ccc2c(c1)NC(=O)C(N1CCCCC1)S2 (configuration not stated)
>57	i	COc1ccc(CCNC(=O)CN2C(=O)C3(OCCCO3)c3ccccc32)cc1OC
>57	i	C=CCNC(=O)c1nn2cccnc2c1Cl
>57	i	CCOC(=O)N1CCN(Cc2nc(-c3ccccc3)no2)CC1
>57	i	COc1cccc(C(=O)N(Cc2nc(-c3cccc(C)c3)no2)C(C)C)c1OC
>57	i	O=C(Cn1c(NCCO)nc2ccccc21)c1ccc(Cl)cc1
i	i	COc1cccc(N(CC(=O)N2CCN(C)CC2)S(=O)(=O)c2ccc(C)cc2)c1
.	i	Cn1c(C(=O)NCCN2CCN(Cc3ccccc3)CC2)cc2c(=O)n(C)c3ccccc3c21
.	i	CC(C)CNC1=CC(=O)CC(c2ccco2)C1 (configuration not stated)
.	i	COc1ccc2[nH]cc(CCNc3cc(-c4c(C)noc4C)ncn3)c2c1
>57	i	CCN(CC)c1ccc(NC(=O)Cn2nnc(-c3cccc(OC)c3OC)n2)c(C)c1
>57	i	CNC(=O)c1ccccc1NC(=O)c1ccc(C)c(S(=O)(=O)N2CCCCC2)c1
>57	i	CC1=C(C(=O)Nc2ccccc2C)C(c2cccnc2)n2nc(CCCO)nc2N1 (configuration not stated)
.	i	O=C(CN1CCN(Cc2ccc(F)cc2Cl)C1=O)NCCCN1CCOCC1
>57	i	O=c1oc2c(CN3CCOCC3)c(O)ccc2c2c1CCC2
i	i	COc1ccc(CC(=O)Nc2cccc(-c3nnc(-c4ccccc4)o3)c2)cc1OC
>57	i	O=C1CC(N(Cc2ccco2)C(=O)Nc2ccc(F)cc2)C(=O)N1c1ccc(F)cc1 (configuration not stated)

# As entered above.
# In Bst PK mod, COc1ccc(CNC(=O)[C@H](C)NC(=O)C2CCN(S(=O)(=O)c3ccc(C)cc3)CC2)cc1 has the entry >26
# In Bst PK mod, CCCCn1c(SCC(=O)c2ccc3c(c2)OCCO3)nnc1-c1ccco1 has the entry >57
# In Bst PK mod, Cc1ccc(Cl)cc1N1CCN(S(=O)(=O)c2ccc3c(c2)OCCO3)CC1 has the entry >57
# In Bst PK mod, O=c1[nH]c2cc3c(cc2cc1CN(CCCO)Cc1nnnn1Cc1ccc(F)cc1)OCO3 has the entry >57

# (continued)
Bst PK mod	TsaE inh	canonical_smiles
>57	i	CC(=O)c1c(C(C)=O)c(C)n(CCCCn2c(C)c(C(C)=O)c(C(C)=O)c2C)c1C
>57	i	O=C(NCC1CCCO1)C1c2ccccc2C(=O)N1Cc1ccc2c(c1)OCO2 (configuration not stated)
.	i	Cn1c(C(=O)NC2CCCC2)cc2c(=O)n(C)c3ccccc3c21
>57	i	COC(=O)C1=C(N)Oc2cc(C)n(Cc3cccnc3)c(=O)c2C1c1ccccc1OC (configuration not stated)
>57	i	CCCn1nnc(NC(=O)Cc2ccc(Cl)cc2)n1
>57	i	COc1ccc(N(Cc2cc(=O)[nH]c3ccccc23)C(=O)c2ccco2)cc1
.	i	COc1cc2c(cc1OC)C(c1ccco1)CC(=O)N2 (configuration not stated)
.	i	Cc1occc1C(=O)NCc1ccc2c(c1)OCO2
>57	i	CCNC(=O)CC1C(=O)N(c2ccc(C)cc2)C(=O)N1Cc1ccccn1 (configuration not stated)
>57	i	Cc1ccc(CCNC(=O)C2CCCN(C(=O)c3cc4sccc4n3C)C2)cc1 (configuration not stated)
>57	i	Nn1c(COc2ccccc2)nc2ccccc2c1=O
.	i	Cc1nc2cc(C(=O)O)ccc2n1-c1ccccc1
>57	i	O=C(CSc1nc2ccccc2c(=O)n1CC1CCCO1)N1CCN(c2ccccc2)CC1 (configuration not stated)
>57	i	Cc1cc(NC(=O)c2ccc(S(=O)(=O)N(C)C)cc2)no1
>57	i	Cc1nc2nc(SCC(=O)N3CCOCC3)nn2c(C)c1Cc1ccccc1
>57	i	O=C(CSc1nnc2ccccn12)c1ccc(OC(F)F)cc1OC(F)F
>57	i	CCOC(=O)c1oc2ccccc2c1NC(=O)Cc1cccs1
.	i	CCOC(=O)NCCc1ccc(OC)cc1
.	i	COc1cc(-c2nnc(COc3ccc4ccccc4c3)o2)cc(OC)c1OC
>57	i	O=C(c1ccc2c(c1)N(Cc1ccc(F)cc1)C(=O)CS2)N1CCOCC1
>57	i	c1ccc(-c2noc(CN3CCN(C(c4ccccc4)c4ccccc4)CC3)n2)cc1
.	i	Cc1ccc(NC(=O)CC2Oc3ccc(C)cc3NC2=O)cc1 (configuration not stated)
>57	i	CCC(C)Cn1c(C)nc2ccccc21 (configuration not stated)
?	i	Nc1c(N2CCOCC2)cc(Cl)c2nonc12
.	i	COc1cccc(Cn2c(=O)c(-c3cccc(F)c3)nc3cncnc32)c1
.	i	Cc1nc2ccccc2c(=O)n1CCCO
.	i	CCOC(=O)N1CCC(NC(=O)CS(=O)(=O)Cc2nc(-c3ccccc3C)oc2C)CC1
.	i	CN1CCN(c2ccnc(-c3ccoc3)n2)CC1
.	i	Cc1cc(C)cc(NC(=O)C2CCCN(S(=O)(=O)c3cnc[nH]3)C2)c1 (configuration not stated)
.	i	CCOC(=O)C1C(=O)Oc2ccc3ccccc3c2C1C1CCOC1=O (configuration not stated)
.	i	CC(C)N(Cc1nc2ccccc2[nH]1)C(C)C
>57	i	O=C(NCc1cccnc1)C1CCN(S(=O)(=O)N2CCOCC2)CC1
.	i	c1ccc2c(c1)OCC(c1csc3ncnc(N4CCOCC4)c13)O2 (configuration not stated)
.	i	CCOC(=O)Nc1ccccc1C(=O)N1CCOCC1
>57	i	Cc1cc(C)cc(N(CC(=O)N2CCC(C)CC2)S(C)(=O)=O)c1
>57	i	COc1ccc(N(CC(=O)NC(C)(C)C)C(=O)c2ccco2)cc1
>26	.	CC(C)NC(=O)N1CCOCCOCCN(C(=O)NC(C)C)CCOCCOCC1
.	i	O=c1c(-c2cc(F)cc(F)c2)nc2cnc(N3CCNCC3)nc2n1Cc1cccs1
>57	i	COc1ccc(-n2c3c(cc(C(=O)N4CCCCC4)c2=O)C(=O)CC(C)(C)C3)cc1
.	i	Cc1noc(/C=C/N(C)C)c1S(=O)(=O)N1CCCC(C(=O)NC2CCCCC2)C1 (configuration not stated)
>26	.	COC(=O)CN(c1nc(C)cc(OC)n1)S(=O)(=O)c1ccccc1
4.6*	i	COc1ccc(N=Cc2c(O)[nH]c3ccccc23)cc1OC
>57	i	CCOP(=O)(c1c(F)c(F)c(F)c(F)c1F)C1(O)CCCCC1 (configuration not stated)
>57	i	Cc1cc(S(=O)(=O)N(Cc2ccccc2)Cc2ccc(N(C)C)cc2)ccc1-n1cnnn1
>57	i	OCc1nnn(-c2cccc(C(F)(F)F)c2)c1CO
?	i	Cc1cc(C)n(-c2cccc3cccnc23)n1
>57	i	O=C(c1ccc(COc2ccc(Cl)cc2)o1)N1CCN(Cc2ccc3c(c2)OCO3)CC1
>57	i	C=CCn1c(NC(=O)c2ccccc2)c(C#N)c2nc3ccccc3nc21
>57	i	Cc1cccc(N2C(=O)N(c3ccccc3C)C3CS(=O)(=O)CC32)c1 (configuration not stated)

# Reprinted at random: two entries already listed
Bst PK mod	TsaE inh	canonical_smiles
>57	i	O=C1CC(N(Cc2ccco2)C(=O)Nc2ccc(F)cc2)C(=O)N1c1ccc(F)cc1 (configuration not stated)
.	i	CC(C)N(Cc1nc2ccccc2[nH]1)C(C)C

# Compounds above with a COOH group:
Bst PK mod	TsaE inh	canonical_smiles
>57	i	Cc1ccccc1C(=O)Nc1cccc(-c2nnc(SCC(=O)O)n2C)c1
.	i	Cc1nc2cc(C(=O)O)ccc2n1-c1ccccc1

# Source: PubChem BioAssay (National Center for Advancing Translational Sciences (NCATS))
